HPGD block – qHTS Assay for Inhibitors of HPGD (15-Hydroxyprostaglandin Dehydrogenase); Potency, µM, inactives show at the top dose activity change, negative = inhibition, most hits filed as inhibitors; 150,000 compounds, 4.3% hits; purified HPGD, NADH fluorescence kinetic, PGE2 substrate; active = well fitted inhibition curve with a large enough effect (not every such curve was filed as active); inconclusive = small, poorly fitted or top-dose-only effect, or another doubt; inactive = no such curve, though single readings can be large or run the other way;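 note: top concentration of the series not given in the record; plate controls included wells without enzyme; inactives centre near -10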
Target sequence (P15428 whole entry, looked up): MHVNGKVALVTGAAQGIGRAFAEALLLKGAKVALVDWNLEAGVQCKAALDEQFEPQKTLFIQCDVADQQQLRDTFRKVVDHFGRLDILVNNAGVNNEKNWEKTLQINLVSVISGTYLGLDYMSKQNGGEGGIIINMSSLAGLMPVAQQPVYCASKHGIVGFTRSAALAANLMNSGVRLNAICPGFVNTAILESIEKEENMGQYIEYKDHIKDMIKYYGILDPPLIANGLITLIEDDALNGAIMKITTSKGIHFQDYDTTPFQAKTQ
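NADH formation kinetics: reaction with 30 uM PGE2 and 1 mM NAD+ (final), 20 nM enzyme, Tris-HCl pH 8 with Tween 20, after 15 min compound preincubation at room temperature. Fluorescence change, last versus first of five reads.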
The depositor's hits bear a star; ? = inconclusive; & = joins results of further samples. % is set by controls: 0 for no effect and ±100 for the full control effect; potency is the fitted concentration of half-maximal effect.

HPGD block | smiles
-3.0% | Cc1cc(C)nc(SCC(=O)N/N=C\c2sccc2C)n1
-5.5% | CCCCN(C)S(=O)(=O)c1cc(Br)cc2c1N(C(=O)C1CC1)CC2
-7.2% | Cc1cc(C)cc(Oc2ccc(-c3nnc(-c4ccccc4)o3)cc2[N+](=O)[O-])c1
-2.3% | Fc1cccc(-n2ncc(-c3nnnn3-c3ccccc3)c2C(F)(F)F)c1
-17.8% | CC(/C=C/c1ccccc1)=N\NC(=O)c1ccncc1
-16.0% | c1ccc(-c2csc3ncnc(NCCCN4CCOCC4)c23)cc1
-11.9% | Cn1c(SCC(=O)NCc2ccco2)nnc1-c1c[nH]c2ccccc12
-9.8% | N#Cc1cc2c(nc1SCC(=O)Nc1sc3c(c1C#N)CCC3)CCCCCC2
-6.4%&-13.7% | C[C@@H](C(=O)NCc1ccccc1)[C@H]1C[C@]1(C)[C@H](NC(=O)OCc1ccccc1)c1ccccc1
-12.6% | COc1ccc(C2CC(=O)n3c(nc4ccccc43)S2)cc1OC (stereo not given)
7.2% | CCCCCCCCOC1OC(CO)C(O)C(O)C1NC(C)=O (stereo not given)
-4.2% | Nc1c(N=Nc2cccc(Cl)c2)c(=O)[nH]n1-c1ccccc1
-3.0% | CCOC(=O)c1cn(CC(=O)Nc2ccc3c(c2)OCCO3)nn1
-21.9% | N/C(=N\OC(=O)CC1CCCCC1)c1ccccc1
-14.4% | CN1CCC(=NNc2ccc(S(=O)(=O)N3CCOCC3)cc2[N+](=O)[O-])CC1
-18.9% | CCC(=O)N(Cc1cc2cccc(C)c2[nH]c1=O)c1ccccc1OC
-16.4% | O=C(NNC(=O)C1CCCO1)c1ccc(Cl)cc1 (stereo not given)
-27.9% | O=C(CN1C(=O)CCC1=O)c1ccc(-c2ccccc2)cc1
-2.2% | COc1ccc(-n2c(SCc3ccc(C#N)cc3)nnc2-c2ccccn2)cc1
-0.5% | O=C(CSc1nnc(-c2c[nH]c3ccccc23)n1-c1ccc(F)cc1)NCc1ccco1
? | CCOc1ccccc1NC(=O)c1ccc(Cl)c(NC(=O)CC(c2ccccc2)c2ccccc2)c1
-13.6% | COc1ccc(CN2CCOCC2)cc1Br
-7.7% | COc1ccc(-c2csc(Nc3cccnc3)n2)cc1OC
-13.7% | O=C1/C(=C/c2ccc([N+](=O)[O-])cc2)C=C(c2ccccc2)N1c1ccc(O)cc1
? | CCOC(=O)c1c(NC(=O)c2nn(CC)cc2Br)sc(C)c1C
-4.3% | COCCNC(=O)C(c1cccs1)N(CCc1ccccc1)C(=O)Cn1nnc2ccccc21 (stereo not given)
? | CC(Oc1ccc(Cl)cc1Cl)c1nc(-c2ccc(NC(=O)c3ccncc3)cc2)no1 (stereo not given)
-8.8% | CCOC(=O)c1ccc(NC(=O)N2CCCCC2)cc1
-7.6% | CCC(CC)C(=O)NCCNC(=O)C(CC)CC
-10.0% | CCn1c(SCC(=O)N/N=C/C=C/c2ccco2)nnc1-c1ccccc1
-8.2% | Clc1cccc(Cl)c1CON/C=N/c1ncnc2sccc12
-13.2%&-8.2%&-13.0% | CN1C(=O)CCC1c1cccnc1 (stereo not given)
? | COc1cc(/C=C/C(=O)Nc2nc3ccc(S(=O)(=O)N(C)C)cc3s2)cc(OC)c1OC
-12.4% | N#Cc1c(N2C(=O)C3C4C=CC(C4)C3C2=O)sc2c1CCC2 (stereo not given)
-12.6% | CC(OC(=O)c1ccc(S(=O)(=O)N(C)c2ccccc2)cc1)C(=O)NCCC1=CCCCC1 (stereo not given)
0.2% | Cc1cc(C(=O)N2CCN(S(C)(=O)=O)CC2)cs1
-0.2% | COc1cc(C(=O)NCC2CCCO2)cc(OC)c1OC (stereo not given)
-5.0% | CC1=Nn2c(nnc2-c2ccc(F)cc2)SC1
-3.3% | O=C(C1CCN(S(=O)(=O)c2cnc[nH]2)CC1)N1CCN(Cc2ccc3c(c2)OCO3)CC1
-9.0% | CN(C)CC1(c2ccccc2)CCCC1
-13.5% | COc1ccc(NC(=O)c2nc[nH]c2C(=O)Nc2ccccc2C)cc1
-6.3% | CCCNc1nc(NCC)nc(OC)n1
-1.3% | CCC(CC)NC(=O)COC(=O)c1ccc(OCC(=O)Nc2ccccc2OC)c(OC)c1
-7.8% | O=C(NC(=O)c1ccccc1)OCC1CCCN2CCCCC12 (stereo not given)
-6.3% | O=C(NCCCN1CCCC1=O)c1csc2ccccc12
-0.8% | COc1cccc(NC(=O)CSc2nnc(CN3CCOCC3)n2C)c1
15.8µM* | CC(=O)c1cccc(NC(=S)NC(=O)CC(C)C)c1
-5.7% | COc1ccc(C(C(=O)NC(C)(C)C)N(Cc2cccs2)C(=O)CCC(=O)Nc2cc(C)on2)cc1 (stereo not given)
-7.7% | CCOC(=O)N1CCN(c2nc3ccccc3nc2C(C#N)C(=O)NCCc2ccccc2)CC1 (stereo not given)
-9.4% | CC1Cc2ccccc2N1Cc1cc(=O)n2ccsc2n1 (stereo not given)

Following part.
HPGD block | smiles
-7.9% | CC1CCN(S(=O)(=O)c2ccc(N/N=C(/C#N)C(N)=O)cc2)CC1
-5.4% | CCOC(=O)C1Cc2ccccc2CN1 (stereo not given)
-28.6% | Fc1ccc(-c2cc(C(F)(F)F)nc(NCc3cccs3)n2)cc1
-14.1% | COc1ccc(NC(=O)COC(=O)/C=C/C(=O)OCC(=O)Nc2ccc(OC)c(Cl)c2)cc1Cl
0.5% | COc1ccc(CCNC(=O)C(=O)N2CCCCC2)cc1OC
-10.7% | O=[N+]([O-])c1cc(C(F)(F)F)cc([N+](=O)[O-])c1NCCCNc1ccc([N+](=O)[O-])c2cccnc12
-2.9% | S=C(Nc1ccc(Cl)c(Cl)c1)NN1CCOCC1
-10.1% | CCCn1c(NCc2ccco2)nc2c1c(=O)n(C)c(=O)n2C
-24.2% | Cc1ccc(-c2nc(P(=O)(c3ccccc3)c3ccccc3)c(N3CCOCC3)o2)cc1
? | CCCCn1nc(NC(=O)c2cccs2)c2cc3cc(OC)ccc3nc21
-7.9% | CCOc1nc(Nc2ccc(OC)c(Cl)c2)nc(OCC)n1
-19.5% | CC(=O)c1c(C)oc(C)c1CSCc1ccc(C(=O)O)o1
-2.8% | Cc1ccc(C(=O)N/C(=C\c2cccs2)C(=O)NCCCn2ccnc2)cc1
14.1µM* | O=C(NCc1ccccn1)C1COc2ccccc2O1 (stereo not given)
-10.7% | CCN(CC)CC(=O)c1c[nH]c2ccc(C)cc12
-2.9% | O=[N+]([O-])c1c(C(Cl)Cl)nn(-c2ccccc2)c1N1CCCC1
-14.5% | Cc1ccccc1OCC(O)Cn1c(NCc2ccco2)nc2c1c(=O)[nH]c(=O)n2C (stereo not given)
-12.5% | COc1cccc(CNC(=O)C(=O)NCCc2ccc(OC)c(OC)c2)c1
-7.4% | S=C(NCCc1ccccc1)Nc1ccc(Cl)cc1
20µM* | COc1ccc(-c2nnc(SCC(=O)NC(=O)NCc3ccco3)o2)cc1
-8.2% | CCCCCCCCCCOC(=O)C[N+](C)(C)C/C=C(/C)Cl
-9.4% | CC(=O)Nc1ccc(OC(=O)c2cc([N+](=O)[O-])ccc2Cl)cc1
-11.3% | O=C(CSc1ncccn1)Nc1ccc(N2CCOCC2)cc1
-24.2% | COc1ccc(C2NC3=C(CCC3)C3(C#N)C4(N=C(N)C23C#N)OCCO4)cc1 (stereo not given)
? | Cc1cc(=O)oc2cc(NC(=O)C3CC(=O)N(Cc4ccccc4)C3)ccc12 (stereo not given)
-11.1% | COc1cc(NC(=S)NC(C)=O)ccc1NC(=O)C(C)C
-6.3% | COc1ccc(-c2cnc(SCC(=O)Nc3cc(C)on3)n2Cc2ccco2)cc1
-28.1% | Cc1ccc(NC(=S)N/N=C2\CC(C)(C)Oc3ccc(O)cc32)cc1
-0.8% | O=C(O)Cn1c(SC2CCCCC2)nc2ccccc21
-6.1% | C1CCN(c2nc(N3CCCCC3)nc(N3CCNCC3)n2)CC1
-8.8% | CS(=O)(=O)N1CCCC(C(=O)NCCc2ccc(Cl)cc2)C1 (stereo not given)
-11.3% | Cc1ccc(C(=O)O)cc1[N+](=O)[O-]
-26.4% | CC1(C)CC2CC(C)(CN2C(=O)c2cc(-c3ccccc3O)on2)C1 (stereo not given)
? | COc1ccc(N2C(=O)c3ccccc3NC2c2ccc(OC)c(CSc3ccccn3)c2)cc1 (stereo not given)
-5.5% | CN(CC(=O)Nc1ccc2c(c1)OCCO2)S(=O)(=O)c1cccc2cccnc12
-11.7% | COC(=O)CSc1n[nH]c(-c2ccncc2)n1
-1.9% | COCCn1c(COc2ccc(OC)cc2)nc2ccccc21
-14.0% | Cc1ccc(S(=O)(=O)Nc2nc3ccccc3nc2N2CCN(c3ccccc3F)CC2)cc1
-11.0% | CCN(c1ccccc1)S(=O)(=O)c1ccc(Cl)c(NC(=O)CSc2nncs2)c1
28.2µM* | O=C(CSc1nnc(-c2c[nH]c3ccccc23)o1)N1CCCCC1
-11.1% | Cc1ccc(C2N(c3ccc(F)cc3)C(=O)C3CCCN32)cc1 (stereo not given)
-22.0% | O=c1oc2ccccc2cc1-c1nc(-c2cccs2)cs1
-5.8% | Fc1ccccc1N1CCN(CCCNc2ccc3nncn3n2)CC1
-11.5% | CN1C(=O)NC(NC(=O)C2CCCCC2)(C(F)(F)F)C1=O (stereo not given)
-1.5% | CCC(=O)Nc1cccc(NC(C)=O)c1
-6.6% | CCCCC(=O)Nc1ccc(C(=O)N2CCC(C(=O)OCC)CC2)cc1
-6.7% | Cc1cc(Cl)ccc1NC(=O)CN1CCC(C(O)(c2ccccc2)c2ccccc2)CC1
-8.4% | CC(C)(C)C(=O)NC1CCN(S(=O)(=O)c2ccc(C(F)(F)F)cc2)CC1
-16.6% | O=C(Nc1ccc(N2CCCCC2)c(Cl)c1)c1ccc(N2CCOCC2)c([N+](=O)[O-])c1
? | CC(=O)CCc1c(C)[nH]c2ccc(NC(C)=O)cc2c1=O

(list continues)
HPGD block | smiles
-9.2% | CC(=O)c1cnc(Nc2nc(C)c3ccc(C)cc3n2)nc1C
-7.5% | CCN(CC)C(=O)Oc1ccccc1NC(C)=O
-1.0% | CCCn1c(C)nc2c(N3CCC(N(C)C)C3)nc(C)nc21 (stereo not given)
-28.4% | COc1cc(OC)cc(C(=O)Nc2ccc(S(=O)(=O)Nc3cc(C)nc(C)n3)cc2)c1
-5.9% | Nc1cccc(C(=O)Nc2ccc(N)cc2Cl)c1
-2.3% | CCCCN(CC)CCNS(=O)(=O)c1ccc2c(c1)oc(=O)n2C
-12.9% | Cc1ccc(S(=O)(=O)Cn2cnnn2)cc1
-14.2% | CCc1ccc(-c2cc(C(=O)Nc3c(C)n(C)n(-c4ccccc4)c3=O)c3ccccc3n2)s1
-7.1% | CC(C)(C)c1cc(CN2CCOCC2)c(C(=O)O)o1
-8.8% | CN(C)c1ccc(C(c2nnnn2C(C)(C)C)N2CCc3ccccc3C2)cc1 (stereo not given)
-20.1% | O=C(Nc1nnc(-c2ccccc2SCc2ccccc2)s1)Nc1ccccc1F
5.5% | COc1ccc(N(CC(=O)NC2CCCC2)C(=O)Cn2nnc(-c3ccc(C)cc3)n2)cc1OC
-2.4% | CCc1ccc(C(=O)COC(=O)C(CCSC)NC(=O)C23CC4CC(CC(C4)C2)C3)cc1 (stereo not given)
3.5% | O=C1CC(c2ccccc2)C(C(=O)Nc2ccccc2F)N1 (stereo not given)
-6.5% | O=C(C1CCN(C2CC(=O)N(c3ccc(F)cc3)C2=O)CC1)N1CCOCC1 (stereo not given)
-13.6% | COc1ccc(C(=O)Nc2cccc(C(=O)N3CCCC3)c2)cc1
-16.9% | COC(=O)c1c(NC(=O)C(C)C)sc2c1C(C(=O)OC)CC2 (stereo not given)
-8.7% | Cc1nc2ccccn2c1C(=O)NCc1ccc2c(c1)OCO2
-11.0% | CCN(c1cccc(C)c1)c1ncnc2nc[nH]c12
-0.4% | Cc1nc(NCCc2cnc[nH]2)c2oc3ccccc3c2n1
-9.2% | Cc1ccc(NC(=O)C2C(C(=O)O)C3C=CC2C32CC2)cc1 (stereo not given)

Screening data as filed in PubChem.

The list is partial (hit frequency here may not be typical).
